# Shh pathway inh = blocks Sonic Hedgehog signaling; inhibition, % (concentration not given with the values); Shh-LIGHT2 Gli-luciferase reporter, 30 h; actives 2.1% (n = 22,000);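 active means replicate mean of 65% or more; inconclusive means mean lower but half the replicates past it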;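 further: pathway switched on by Shh-conditioned medium diluted 1 in 25 in low serum; 100 nL library stock added to about 40 µL; 0% = median of neutral wells and 100% = positive control level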
# PD-1 reverse act = activators reversing PD-1 mediated T-cell inhibition; primary human CD4 T cells, PD-L1 beads, CellTiter-Glo 96 h; activation, % (no concentration beside the values); 29,000 tested, under 10 active;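 active means replicate mean of 50% or more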;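 further: 0% = median vehicle wells and 100% = positive control; 100 nL library stock added to about 50 µL; numbers are from one replicate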
# MITF inh = inhibitors of MITF; TRPM1 promoter luciferase, luminescence, 24 h; inhibition, % (no concentration beside the values); actives 0.28% (n = 37,000); AID 2240;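 active means most replicates at 85% or more, or half of them and the mean; inconclusive means half reach 85% but not the mean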;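 further: human melanocyte line stably carrying TRPM1 promoter luciferase reporter; 0% = vehicle wells and 100% = a positive control; the first replicate is given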
# YB-1 expression = YB-1 expression inhibition. U2OS, qRT-PCR YB-1 vs CDIP delta delta Cp, 16 h; hits give high values; zero = DMSO, each unit about twofold. delta delta Cp (YB-1 minus CDIP) (no concentration beside the values). actives 0.37% (n = 30,000). AID 434959;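 active means delta delta Cp rounded down to an integer at or above 3, about 3 SD of DMSO wells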;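 further: higher means less YB-1 transcript or more CDIP transcript relative to DMSO; stock transfer was 100 nL into about 100 µL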
# * hit, by the source's call; ? = inconclusive; . = no result given. This is a subset (hit frequency here may not be typical).
nr	SMILES	MITF inh	Shh pathway inh	YB-1 expression	PD-1 reverse act
1	C[C@H](CO)N1C[C@H](C)[C@@H](CN(C)Cc2ccc(Cl)c(Cl)c2)Oc2ccc(NC(=O)NC3CCCCC3)cc2C1=O	10	.	0.49	-0.7
2	COc1ccc(S(=O)(=O)N(C)C[C@H]2Oc3ccc(N(C)C)cc3C(=O)N([C@@H](C)CO)C[C@H]2C)cc1	5	.	-0.071	-1.0
3	CC(C)NC(=O)N(C)C[C@@H]1Oc2ccc(NS(=O)(=O)c3cccs3)cc2C(=O)N([C@@H](C)CO)C[C@@H]1C	-8	14	-0.078	1.5
4	C[C@@H]1CN([C@@H](C)CO)C(=O)c2cc(NC(=O)C3CC3)ccc2O[C@@H]1CN(C)S(=O)(=O)c1ccc(Cl)cc1	2	4	-0.13	-0.9
5	Cc1c(Cl)cccc1NC(=O)CN(C)S(=O)(=O)c1ccc2ccccc2c1	10	.	.	1.0
6	C[C@H]1CN([C@@H](C)CO)C(=O)c2cccc(NC(=O)Nc3ccc(C(F)(F)F)cc3)c2O[C@H]1CN(C)S(C)(=O)=O	-15	-14	0.2	-1.2
7	C[C@H](CO)N1C[C@H](C)[C@@H](CN(C)Cc2ccccc2)Oc2c(NC(=O)c3ccncc3)cccc2C1=O	2	-2	-0.15	.
8	Nc1cc(N)nc(SCc2n[nH]c(=S)n2-c2ccccc2)n1	-1	.	.	2.0
9	Cc1noc(C)c1NC(=O)Nc1ccc2c(c1)C(=O)N([C@H](C)CO)C[C@@H](C)[C@H](CN(C)Cc1ccc(C(F)(F)F)cc1)O2	-5	.	.	-1.0
10	C[C@@H]1CN([C@H](C)CO)C(=O)Cc2cc(NC(=O)c3ccncc3)ccc2O[C@H]1CN(C)S(=O)(=O)c1ccccc1	-3	4	-0.38	-0.7
11	CNC[C@@H]1Oc2c(NC(=O)C3CCCCC3)cccc2C(=O)N([C@@H](C)CO)C[C@H]1C	-2	0	-0.45	-0.9
12	O=C(O)c1cc(-c2ccccc2)nc2ccccc12	-24	-72	-0.11	2.3
13	CC(C)NC(=O)N(C)C[C@H]1Oc2ccc(N(C)C)cc2C(=O)N([C@@H](C)CO)C[C@H]1C	4	.	-0.11	-1.3
14	CC(C)NC(=O)Nc1cccc2c1O[C@H](CN(C)Cc1ccc(-c3ccccc3)cc1)[C@H](C)CN([C@@H](C)CO)C2=O	-3	1	0.19	0.6
15	Cc1ccc(S(=O)(=O)Nc2cccc3c2O[C@H](CN(C)S(=O)(=O)c2ccc(C)cc2)[C@@H](C)CN([C@@H](C)CO)C3=O)cc1	-8	-5	-0.39	1.7
16	C[C@H]1CN([C@@H](C)CO)C(=O)Cc2cc(NC(=O)Nc3ccc4c(c3)OCO4)ccc2O[C@H]1CN(C)CC1CC1	-13	.	0.055	0.5
17	COc1cccc(N(CC(=O)Nc2c(C)n(C)n(-c3ccccc3)c2=O)S(C)(=O)=O)c1	4	.	.	3.4
18	Cc1c(NC(=O)Cn2nc(C(F)(F)F)c3c2CCCC3)c(=O)n(-c2ccccc2)n1C	-22	.	.	2.0
19	Cc1cc(C)nc(SC(C)C(=O)Nc2ccc(Cl)c(Cl)c2)n1 (stereo unspecified)	6	.	.	1.4
20	N#CC1=C(N)Oc2n[nH]c(-c3ccccc3)c2C1c1ccoc1 (stereo unspecified)	27	?	-0.59	-7.1
21	C[C@@H]1CN([C@H](C)CO)C(=O)c2cccc(NC(=O)c3ccncc3)c2O[C@H]1CN(C)Cc1ccccc1	26	4	-0.36	-3.0
22	O=C(Cc1ccc(O)cc1)OC1[C@@H](O)[C@@H](O)C(OC(=O)Cc2ccc(O)cc2)[C@H](O)[C@@H]1O (stereo partly specified)	2	9	2	-3.0
23	C[C@H](CO)N1C[C@H](C)[C@H](CN(C)Cc2ccc(C(=O)Nc3ccccc3N)cc2)Oc2ccc(NS(C)(=O)=O)cc2C1=O	-21	.	0.43	-0.1
24	CC1CN(C)C(c2ccccc2)C(C)C12NC(=O)NC2=O (stereo unspecified)	7	-1	-0.67	0.0
25	CC1CC(C)CN(C(=O)C2c3ccccc3Oc3ccccc32)C1 (stereo unspecified)	-2	.	0.28	-0.5
26	Cc1cc(C(=O)Nc2cccc3c2O[C@H](CN(C)S(=O)(=O)c2c(C)noc2C)[C@H](C)CN([C@H](C)CO)C3=O)n(C)n1	-14	15	0.46	2.1
27	C[C@H](CO)N1C[C@H](C)[C@H](CN(C)CC2CC2)Oc2ccc(NC(=O)Cc3ccccc3)cc2CC1=O	17	-15	-0.047	.
28	CC(=O)c1ccc(NC(=O)CSc2nc(C)cc(C)c2C#N)cc1	-93	.	.	1.6
29	C[C@@H]1CN([C@H](C)CO)C(=O)c2cccc(NS(=O)(=O)c3cn(C)cn3)c2O[C@@H]1CN(C)S(=O)(=O)c1ccc(Cl)cc1	1	15	0.093	-0.2
30	CC1=Nn2c(Cn3nnc4ccccc43)nnc2SC1	4	-4	-0.019	0.7
31	Cc1ccc(S(=O)(=O)Nc2cccc3c2O[C@@H](CN(C)CC2CCCCC2)[C@@H](C)CN([C@H](C)CO)C3=O)cc1	0	88*	0.89	-0.3
32	O=S(=O)(c1ccccc1)c1nc(-c2ccco2)oc1NCc1cccnc1	-14	.	.	1.2
33	C[C@@H]1CN([C@H](C)CO)C(=O)c2cc(NS(=O)(=O)c3ccc(Cl)cc3)ccc2O[C@H]1CN(C)Cc1ccc2c(c1)OCO2	-7	.	-0.16	1.2
34	CC(C)NC(=O)Nc1ccc2c(c1)CC(=O)N([C@H](C)CO)C[C@@H](C)[C@H](CN(C)S(=O)(=O)c1ccc(F)cc1)O2	-5	-7	-0.11	.
35	O=C(CC1(O)C(=O)N(Cc2cccc3ccccc23)c2ccccc21)c1ccccc1[N+](=O)[O-] (stereo unspecified)	51	.	.	-4.0
36	COc1ccc(NC(=O)N(C)C[C@@H]2Oc3c(NC(=O)Nc4ccc(F)cc4)cccc3C(=O)N([C@H](C)CO)C[C@@H]2C)cc1	4	22	-0.19	-1.3
37	COC(=O)c1ccc(NC(=O)CN(C)S(=O)(=O)c2cc(Cl)ccc2Cl)cc1	-2	.	.	1.2
38	C[C@H](CO)N1C[C@H](C)[C@@H](CN(C)S(=O)(=O)c2cn(C)cn2)Oc2ccc(NC(=O)C3CC3)cc2C1=O	-4	-39	0.062	0.5
39	CCC(C)c1cnc(Cc2ccccc2)c(=O)[nH]1 (stereo unspecified)	-5	7	-0.24	0.9
40	C[C@H](CO)N1C[C@H](C)[C@@H](CN(C)Cc2ccccc2)Oc2c(NC(=O)NC3CCCCC3)cccc2C1=O	12	0	-0.11	-2.6
41	C[C@H](CO)N1C[C@H](C)[C@H](CN(C)Cc2ccc(-c3ccccc3)cc2)Oc2ccc(NC(=O)Nc3ccccc3)cc2C1=O	7	4	-2.3	1.1
42	Cc1ccc(NC(=O)CSc2nnc(-c3ccco3)n2-c2ccccc2)cc1Cl	3	.	.	-0.8
43	Nc1cc(N)nc(SCC(=O)N2CCN(c3ccc(Cl)cc3)CC2)n1	-3	.	.	2.0
44	C[C@@H]1CN([C@@H](C)CO)C(=O)c2cccc(NC(=O)C3CCCCC3)c2O[C@H]1CN(C)Cc1ccccc1	29	-6	-0.33	-3.6
45	COC(=O)c1cc(C)nc(Sc2ccccc2NC(=O)Nc2ccc(Cl)cc2)n1	11	-3	0.1	1.8
46	COc1ccc(S(=O)(=O)N(C)C[C@@H]2Oc3c(NC(=O)Nc4ccc(F)cc4)cccc3C(=O)N([C@H](C)CO)C[C@@H]2C)cc1	2	68*	0.41	-0.6
47	CC(C)c1ccc(NC(=O)CNS(=O)(=O)c2ccccc2)cc1	-28	.	.	0.5
48	COc1ccc(NC(=O)c2cccs2)cc1OC	-50	29	0.21	0.3
49	Cc1ccc(S(=O)(=O)Nc2cccc3c2O[C@H](CN(C)Cc2ccc(C(F)(F)F)cc2)[C@H](C)CN([C@H](C)CO)C3=O)cc1	10	35	-0.1	.
50	C[C@H]1CN([C@@H](C)CO)C(=O)c2cc(NC(=O)Cc3ccccc3)ccc2O[C@H]1CN(C)C(=O)Nc1ccc(F)cc1	-7	0	0.091	0.0
51	C[C@H](CO)N1C[C@H](C)[C@@H](CN(C)S(=O)(=O)c2ccccc2)Oc2ccc(NC(=O)Cc3ccccc3)cc2C1=O	-2	-36	-0.17	.
52	COc1ccc(S(=O)(=O)Nc2ccc3c(c2)CC(=O)N([C@@H](C)CO)C[C@H](C)[C@H](CN(C)C(=O)NC(C)C)O3)cc1	-13	.	-0.36	.
53	C[C@H]1CN([C@@H](C)CO)C(=O)c2cc(NC(=O)Nc3ccc(C(F)(F)F)cc3)ccc2O[C@@H]1CN(C)S(=O)(=O)c1ccc(Cl)cc1	21	47	-0.17	-1.3
54	C[C@@H]1CN([C@H](C)CO)C(=O)c2cc(NC(=O)Cc3ccccc3)ccc2O[C@@H]1CN(C)S(=O)(=O)c1ccc(F)cc1	-2	26	-0.12	1.3
55	O=C(Cn1c(=O)oc2ccccc21)Nc1ccc(S(=O)(=O)N2CCCC2)cc1	-1	.	.	0.9
56	Cc1ccc(S(=O)(=O)N(C)C[C@H]2Oc3ccc(NS(C)(=O)=O)cc3CC(=O)N([C@@H](C)CO)C[C@@H]2C)cc1	-5	-23	-0.25	-1.4
57	COc1ccc(S(=O)(=O)Nc2cccc3c2O[C@@H](CN(C)S(=O)(=O)c2ccc(Cl)cc2)[C@H](C)CN([C@@H](C)CO)C3=O)cc1	-1	13	0.18	0.2
58	C[C@H](CO)N1C[C@H](C)[C@H](CN(C)C(=O)NC2CCCCC2)Oc2c(NS(=O)(=O)c3cn(C)cn3)cccc2C1=O	2	7	-0.27	1.4
59	C[C@@H]1CN([C@@H](C)CO)C(=O)Cc2cc(NC(=O)Nc3ccc(C(F)(F)F)cc3)ccc2O[C@@H]1CN(C)Cc1ccc(Cl)c(Cl)c1	20	-21	0.1	-2.0
60	Cc1noc(C)c1NC(=O)N(C)C[C@@H]1Oc2c(NC(=O)Nc3ccc4c(c3)OCO4)cccc2C(=O)N([C@H](C)CO)C[C@@H]1C	5	-7	-0.62	1.6

# Entries of single compounds as entered above. Order of values: MITF inh, Shh pathway inh, YB-1 expression, PD-1 reverse act
# `C[C@H](CO)N1C[C@H](C)[C@H](CN(C)Cc2ccc(-c3ccccc3)cc2)Oc2ccc(NC(=O)Nc3ccccc3)cc2C1=O` across the screens: 7, 4, -2.3, 1.1
# `O=C(Cn1c(=O)oc2ccccc21)Nc1ccc(S(=O)(=O)N2CCCC2)cc1` across the screens: -1, ., ., 0.9

# Further records follow.
nr	SMILES	MITF inh	Shh pathway inh	YB-1 expression	PD-1 reverse act
61	O=C(COc1ccc([N+](=O)[O-])cc1)Nc1cc(Cl)ccc1O	26	.	.	-2.5
62	Cc1c(NC(=O)CCCC(=O)O)cccc1C(=O)O	-14	.	.	1.0
63	Cc1cc(C(=O)Nc2cccc3c2O[C@@H](CN(C)Cc2ccncc2)[C@@H](C)CN([C@H](C)CO)C3=O)n(C)n1	-8	-3	0.46	0.0
64	C[C@@H]1CN([C@H](C)CO)C(=O)Cc2cc(NC(=O)CCC(F)(F)F)ccc2O[C@H]1CN(C)Cc1ccc(C(F)(F)F)cc1	5	-42	0.075	-2.3
65	OCCNc1nc2ccccc2n1CCOc1ccccc1	-1	.	.	-1.4
66	Cc1cc(C(=O)Nc2cccc3c2O[C@@H](CN(C)C)[C@@H](C)CN([C@@H](C)CO)C3=O)n(C)n1	-12	-10	0.17	-0.9
67	CCOC(=O)C(N)Cc1ccccc1 (stereo unspecified)	3	-16	-0.24	0.6
68	Cc1noc(C)c1NC(=O)N(C)C[C@H]1Oc2ccc(NC(=O)Cc3cn(C)c4ccccc34)cc2CC(=O)N([C@@H](C)CO)C[C@@H]1C	6	.	-0.19	0.1
69	COc1cccc(CNc2nc3nc(C)c(Cc4ccccc4)c(=O)n3[nH]2)c1	-6	.	.	-0.1
70	Cc1noc(C)c1NC(=O)N(C)C[C@H]1Oc2ccc(NC(=O)NC3CCCCC3)cc2C(=O)N([C@@H](C)CO)C[C@@H]1C	-17	-37	0.32	1.5
71	C[C@H]1CN([C@@H](C)CO)C(=O)c2cccc(NC(=O)c3cnccn3)c2O[C@H]1CN(C)Cc1ccc(Oc2ccccc2)cc1	-20	13	-0.18	.
72	CC(=O)C(C#N)C(=O)Nc1cc(Br)ccc1Br (stereo unspecified)	-2	-44	-0.29	.
73	C[C@H]1CN([C@@H](C)CO)C(=O)Cc2cc(NS(=O)(=O)c3cn(C)cn3)ccc2O[C@H]1CN(C)S(=O)(=O)c1ccccc1	3	-14	0.39	1.2
74	Cc1ccc(S(=O)(=O)Nc2cccc3c2O[C@@H](CN(C)Cc2ccncc2)[C@@H](C)CN([C@@H](C)CO)C3=O)cc1	2	19	0.037	-0.8
75	CCOc1ccc(NC(=O)C2CC(=O)n3c(nc4ccccc43)N2)cc1 (stereo unspecified)	-2	.	.	0.0
76	C[C@H]1CN([C@@H](C)CO)C(=O)c2cc(NS(=O)(=O)c3ccc(F)cc3)ccc2O[C@@H]1CN(C)C(=O)Nc1cccc2ccccc12	-7	26	-0.036	0.2
77	C[C@H](CO)N1C[C@H](C)[C@@H](CN(C)C(=O)Nc2ccc(F)cc2)Oc2ccc(NC(=O)C3CC3)cc2C1=O	-5	-19	-0.41	0.3
78	COc1ccc(NC(=O)Nc2ccc3c(c2)C(=O)N([C@@H](C)CO)C[C@@H](C)[C@H](CN(C)C(=O)Nc2ccc(F)cc2)O3)cc1	1	-8	0.86	.

# Assay outcomes from PubChem BioAssay.
